CDC25B CDK2 inh: primary biochemical HTRF screen for blockers of M-phase inducer phosphatase 2 binding to CDK2/cyclin A. z-score (no concentration beside the values). actives 0.72% (n = 94,000). P30305+P24941. HTRF CDC25B-CDK2/CyclinA binding, anti-His/anti-Flag; hits give high values;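 also: score is relative to mean and SD of negative controls; strong numbers were not always called active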
TAR Tat displ: TAR RNA-Tat peptide displacers, HIV-1, primary screen, biochemical, FRET, FAM/TAMRA-labeled Tat; HIV-1 TAR RNA, Tat peptide displacement FRET; hits give high values; z-score (no concentration beside the values); actives 0.6% (n = 100,000);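 also: score is relative to mean and SD of negative controls; some compounds called inactive have numbers as strong as hits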
* marks the source's active call; other numbers are inactive results; · = no result given.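 The calls were made as follows: active = z-score from 3 up in half or more of its runs; inactive = the rest.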

SMILES	CDC25B CDK2 inh	TAR Tat displ
O=c1[nH]c2ccc(S(=O)(=O)N3CCCCC3)cc2s1	0.02	0.3
O=C(Cc1cccc2c(S(=O)O)cccc12)NC(c1ccccc1)c1ccccc1	-2.8	0.38
O=C(NCCc1csc(-c2cccs2)n1)C1CCN(C(=O)C2CC2)CC1	·	0.64
CC[C@H](NC(=O)c1c(C)c(-c2ccccc2)nc2ccccc12)c1ccccc1	-1.1	·
CCOC(=O)N1CCC(c2cc(=O)n(-c3ccccc3)[nH]2)CC1	7*	1.1
C=CCOc1ccc(/C(O)=C2\C(=O)C(=O)N(Cc3cccnc3)C2c2ccccc2F)cc1C (configuration not stated)	-0.15	0.46
CC(NC(=O)Cn1sc2ccccc2c1=O)c1ccc2c(c1)OCCO2 (configuration not stated)	-1.9	2.3
COc1ccccc1-n1c(O)c(C2=Nc3ccccc3SC(c3cccc(O)c3)C2)c(=O)[nH]c1=O (configuration not stated)	0.75	0.14
CCN(CC)C(=O)CCS(=O)(=O)c1cc(Br)cc2c1N(C(C)=O)CC2	-0.46	·
COc1cc(C(F)(F)F)nc2ccc(C)c(NC(=O)Nc3ccccc3)c12	0.17	·
CCOC(=O)C1(C)C=C(Nc2ccc(OCC)cc2)C(=O)N1c1ccc(OCC)cc1 (configuration not stated)	-0.04	-0.04
CC(C)(C)Nc1ncnc2c1cnn2-c1ccc(Cl)cc1	·	0.06
CCC(C)NC(=O)CCc1nnc2ccc(N3CCOCC3)nn12 (configuration not stated)	·	0.66
CCCC(=O)Nc1nnc(S(=O)(=O)N2CCOCC2)s1	-1.5	0.76
Cc1c(NC(=O)CN(c2cccc3ccccc23)S(C)(=O)=O)c(=O)n(-c2ccccc2)n1C	-0.67	2.9
CSc1ncc(C(=O)Nc2ccccc2C(=O)c2ccccc2)c(C(F)(F)F)n1	·	-0.54
COc1cc(OC)c(N2C(=O)CCC2(C)C(=O)NC2CCCC2)cc1Cl (configuration not stated)	0.52	0.6
Cn1c(=O)oc2cc(S(=O)(=O)N3CCOCC3)ccc21	-0.75	0.74
CCc1nn2c(=O)cc(COC(=O)C(CC)CC)nc2s1	·	-0.67
Cc1cc(C)n(-c2ccc(S(N)(=O)=O)cc2)n1	-1.3	·
CCOC(=O)Cc1csc(NC(=O)NC2(C(F)(F)F)Oc3ccccc3O2)n1	-0.68	·
Cn1cnc([N+](=O)[O-])c1Sc1nccc(-c2cccs2)n1	-1.8	·
CC1(C)N([O-])C2=C(c3ccccc3C2=O)[N+](=O)C1(C)C	17*	·
Cc1oc2ncnc(N3CCCCC3)c2c1C(=O)NCCCN1C(C)CCCC1C (configuration not stated)	·	0.37

Arranged by heavy-atom count (highest first): part of the list above
SMILES	CDC25B CDK2 inh	TAR Tat displ
COc1ccccc1-n1c(O)c(C2=Nc3ccccc3SC(c3cccc(O)c3)C2)c(=O)[nH]c1=O (configuration not stated)	0.75	0.14
CCOC(=O)C1(C)C=C(Nc2ccc(OCC)cc2)C(=O)N1c1ccc(OCC)cc1 (configuration not stated)	-0.04	-0.04
Cc1oc2ncnc(N3CCCCC3)c2c1C(=O)NCCCN1C(C)CCCC1C (configuration not stated)	·	0.37
COc1cc(C(F)(F)F)nc2ccc(C)c(NC(=O)Nc3ccccc3)c12	0.17	·
COc1cc(OC)c(N2C(=O)CCC2(C)C(=O)NC2CCCC2)cc1Cl (configuration not stated)	0.52	0.6
CCC(C)NC(=O)CCc1nnc2ccc(N3CCOCC3)nn12 (configuration not stated)	·	0.66
CC(C)(C)Nc1ncnc2c1cnn2-c1ccc(Cl)cc1	·	0.06

More structures
SMILES	CDC25B CDK2 inh	TAR Tat displ
Cc1cc(C)c(CSc2nccn(-c3ccc(F)cc3)c2=O)c(C)c1	·	-0.33
COc1ccc(-n2c(=O)[nH]c(=O)c3sc(N)nc32)cc1	0.15	7.3*
O=C(O)c1cc(C(=O)O)c2cc(Cl)ccc2n1	-4.8	·
O=C(Nc1ccc(Cl)cc1)c1cc(=O)c2ccccc2o1	-0.94	·
Cc1onc(-c2ccccc2Cl)c1C(=O)OCC(=O)c1ccccc1	-2.1	-0.64
CCCCN(CCNC(=O)c1ccc2c(=O)n3c(nc2c1)CCCCC3)Cc1ccco1	1.2	·
Cc1nn(C(C)C(=O)Nc2ccccc2Cl)c(=O)c2c1sc1ccccc12 (configuration not stated)	-1.5	-0.43
Cc1ccc(-c2c(C(F)(F)F)nn3c(NCCN(C)C)cc(C)nc23)cc1	-1.5	-0.31
CN1CCN(c2nc3c(c(=O)n(C)c(=O)n3C)n2CC(=O)c2ccc(Cl)cc2)CC1	0.24	·
CCOC(=O)NC(=O)/C(C#N)=N/Nc1ccccc1	-0.72	·
NC(=O)C1CCN(C(=O)c2nccnc2C(=O)O)CC1	-0.4	·
COC(=O)c1ccc(N2CSC3=C(C#N)C(c4ccc(Cl)cc4)CC(=O)N3C2)cc1 (configuration not stated)	7.1*	-0.23
Cc1cccc(-c2nc3ccccc3c3nncn23)c1	-1.3	·
CCOC(=O)Cn1c(SCCOc2ccccc2OC)nc2ccccc21	1	-0.15
COc1ccc(-c2nnc(SCc3ccccc3Cl)o2)c(OC)c1	0.87	0.53
O=C(Nc1ccc(F)cc1F)N1CCN(c2cnccn2)CC1	-1.8	1.8
Cc1cccc(-c2csc(-c3nc(-c4cccnc4)no3)c2-n2cccc2)c1	-2.8	0.58
COCCNC(=O)CSc1nnc(-c2ccoc2C)o1	-1.5	1.5
CN1C(=O)c2cc(NC(=O)CCC3CCCC3)ccc2N2CCN=C12	·	0.73
Cn1c(C2=C(O)CN(c3ccc(F)c(Cl)c3)C2=N)nc2ccccc21	-0.94	1.5
O=C(CSCc1cnn(-c2ccccc2)c1-n1cccc1)N1CCCCC1	-1.6	-0.14
C=CCOC(=O)c1sc(N2C(=O)c3oc4ccccc4c(=O)c3C2c2cccc(O)c2)nc1C (configuration not stated)	0.1	0.25
CCCCCOc1ccc(C2C(C(=O)OC(C)C)=C(C)N=C3SCCC(=O)N32)cc1OC (configuration not stated)	-0.03	1
CCCn1c2ccccc2c2cnn(CC(=O)NCCc3ccsc3)c(=O)c21	·	0.21
CN(CC(=O)N1CCOCC1)S(=O)(=O)c1ccc2c(c1)CCCC(=O)N2	·	0.64
CCc1cc2c3c([nH]c2cc1S(=O)(=O)Nc1ccc(Cl)cc1F)CCCC3=O	·	4.3*
Cc1cccc2cc3c(nc12)N(C(=O)c1cccc(Br)c1)CC3	-1.3	-2.1
Cc1nn(-c2ccccc2)c(-n2cccc2)c1CNC(=O)Nc1ccc(F)cc1	·	-1.6
CC(=O)N1CC(C)Oc2ccc(S(=O)(=O)N3CCC4(CC3)Nc3ccccc3-n3cccc34)cc21 (configuration not stated)	·	0.24
Cc1cc(-c2ccc(S(=O)(=O)Nc3ccc(Br)c(C)c3)s2)on1	·	0.66
CC1Cc2cc(S(=O)(=O)N3CCCC(C(=O)N4CCCCC4)C3)ccc2N1C(=O)C1CC1 (configuration not stated)	·	0.8
O=c1[nH]c2cc(C(F)(F)F)ccc2n1-c1cc(C(F)(F)F)ccc1O	0.57	·
Cc1ccc(S(=O)(=O)c2c[nH]c3ccc(Cl)cc3c2=O)cc1	3	-0.77
COC(=O)c1sc2c(sc(=O)n2-c2cc(C)cc(C)c2)c1O	-0.1	-1.3
CCCc1cc(=O)[nH]c(SCc2cccc(C)c2)n1	-1.3	0.64
Cc1nn2c(=O)cc(COC(=O)c3ccc(Cl)cc3)nc2s1	·	1.2
COc1cc(OC)c(C=C2C(=O)OC(C)(C)OC2=O)c(OC)c1	-0.06	·
O=C1c2cccc3cccc(c23)C(=O)N1CC(=O)N1CCc2ccccc21	-0.38	2.8
C=CCN(C(=O)CSc1nnc(CC)n2c1cc1occc12)c1ccccc1	·	0.03
CCOc1ccc(/C=N/NC(=O)N/N=C/c2ccc(OCC)c(OC)c2)cc1OC	-1.7	·
CCOC(=O)c1c(NC(=O)c2cc(=O)c3cc(C)cc(C)c3o2)sc2c1CCC2	0.54	0.04
CC(C)CCCC(C)[C@H]1CC[C@H]2[C@@H]3C(=O)C=C4C[C@@H](O)CC[C@]4(C)[C@H]3CC[C@]12C (some centres not stated)	·	3.1
CC1CN(c2ccc(F)cc2)c2nc3c(c(=O)n(CC(=O)O)c(=O)n3C)n2C1 (configuration not stated)	0.39	-0.2
CC1CC(C)CN(c2cc(NCCO)c3c4c(onc24)-c2ccccc2C3=O)C1 (configuration not stated)	-3.2	1.2
COc1cccc(Nc2nc3cc(OC)ccc3cc2C#N)c1	-0.75	·
COc1ccc(OC)c(C(=O)CC2(O)C(=O)Nc3ccc(F)cc32)c1 (configuration not stated)	·	0.2
CC1(C)Cc2c(sc(/N=C/N3CCCCCC3)c2C#N)C(C)(C)N1	-3.7	·
O=C(O)c1[nH]cc(-c2ccccc2)c1-n1cccc1	-1.3	-0.54
Cc1cc(-c2ccc(C(C)C)c(S(=O)(=O)N3CCC(C)CC3)c2)on1	·	1.4
COc1cc(NC(=O)CSc2nnc(C)n3c2cc2sccc23)cc(OC)c1	·	0.5
CCn1nc(C)c(CCNS(=O)(=O)c2ccc(C(C)(C)C)cc2)c1C	·	1.2
C(=NCCc1ccccc1)c1ccccc1	-2.1	·
O=C(c1cnn(-c2cccc(F)c2)c1C1CCNCC1)N1CCOCC1	·	-0.6
NNC(=O)CCN(Cc1ccco1)S(=O)(=O)c1ccc(Cl)cc1	-1.1	·
CC(C)(C)NC(=O)Cn1nc(C(F)(F)F)c2c1CCCC2	0.41	-0.06
Cc1cc(-c2ccc(S(=O)(=O)NCC(C)c3ccccc3)s2)on1 (configuration not stated)	·	0.09
O=C(CSc1ccc2nc(-c3ccccc3)cn2n1)NCc1ccc2c(c1)OCO2	·	0.82
O=C(O)C1CC(=O)n2c(nc3ccccc32)S1 (configuration not stated)	0.31	0.44
O=c1cc(CO)oc(CO)c1O	-1.5	·
Cc1ccc(-c2nn3c(=O)cc(N4CCN(C(=O)c5ccc(F)cc5)CC4)nc3s2)cc1	·	-0.33

Next part.
SMILES	CDC25B CDK2 inh	TAR Tat displ
C=CCNC(=O)c1c(NC(=O)c2snnc2C)sc2c1CCCC2	-1.2	-1.6
CCOc1ccc(/C=C/c2nc(-c3ccccc3)no2)cc1OCC	-0.04	0.3
COc1cc2c(c(OC)c1OC)Cc1cc(OC)c(OC)c(OC)c1C2	-2.4	·
Oc1c(C(c2cccs2)N2CCN(c3ccccc3)CC2)ccc2cccnc12 (configuration not stated)	·	1.7
Cc1cc(-c2ccc(S(=O)(=O)Nc3ccccc3F)s2)n[nH]1	·	1
O=C(O)c1ccccc1SCc1cc(=O)n2cc(Br)ccc2n1	·	3.4
OCC[n+]1c2ccccc2nc2ccc(N3CCOCC3)cc21	-11	-3.6
CCn1c(C2CC(=O)N(c3ccc(F)cc3)C2)nc2ccccc21 (configuration not stated)	-0.49	0.09
CCCN1C(=O)C(O)(C2COC(C)(C)CC2=O)c2cc(Br)ccc21 (configuration not stated)	-0.81	-0.56
O=C(NCC1CCCO1)c1ccc(NC2=NC3CS(=O)(=O)CC3S2)cc1 (configuration not stated)	-1.3	0.56
Cn1c(NC(=O)c2ccc(C(C)(C)C)cc2)cc(=O)n(C)c1=O	·	1.3
O=C(OCc1cc(=O)n2nc(C3CC3)sc2n1)c1ccccc1Br	·	-0.78

Looked up by structure from the list above, five records:
SMILES	CDC25B CDK2 inh	TAR Tat displ
C=CCNC(=O)c1c(NC(=O)c2snnc2C)sc2c1CCCC2	-1.2	-1.6
CCOc1ccc(/C=C/c2nc(-c3ccccc3)no2)cc1OCC	-0.04	0.3
OCC[n+]1c2ccccc2nc2ccc(N3CCOCC3)cc21	-11	-3.6
O=C(O)c1ccccc1SCc1cc(=O)n2cc(Br)ccc2n1	·	3.4
CCn1c(C2CC(=O)N(c3ccc(F)cc3)C2)nc2ccccc21 (configuration not stated)	-0.49	0.09

(next part)
SMILES	CDC25B CDK2 inh	TAR Tat displ
Cc1cc(NC(=O)NC(C)c2c(-n3cccc3)sc(C)c2C)ccc1Br (configuration not stated)	1.9	0.81
CCOc1ccc(NC(=O)CN2C(=O)c3ccccc3S2(=O)=O)cc1	-0.43	·
Clc1ccccc1/C=N/Nc1ncc(-c2ccc3c(c2)OCCCO3)s1	-2.1	·
O=C(Cn1cnc(S(=O)(=O)N2CCOCC2)c1)Nc1ccc(Br)cc1F	·	-1
COc1ccc(CCNS(=O)(=O)c2ccc(Cl)cc2)cc1OC	-1.4	·
CCCNC(=O)c1cc2n(n1)CC(C)(C(=O)NC1CCCC1)N(C)C2=O (configuration not stated)	·	-0.86
CCOCCCNc1c(CC)c(C)c(C#N)c2nc3ccccc3n12	-0.02	-2
CC(C)c1ccc(S(=O)(=O)N2CCCC(c3nc(-c4ccccc4Cl)no3)C2)cc1 (configuration not stated)	·	1
COc1cc(OC)cc(-n2nnc(-c3nc(-c4ccccc4F)no3)c2N)c1	·	-0.03
COCCCNc1nc2ccccc2n2nnnc12	-0.48	-1.7
O=C(NC1CC1)C1CCN(S(=O)(=O)c2cccnc2)CC1	·	0.96
Cc1ccc(Cn2c(CO)cnc2SCc2ccc(Br)cc2)cc1	·	-3.1
Fc1ccccc1-c1noc(NC2CC2)n1	·	0.47
COC(=O)C1C(=O)C2=C(CC1C)NC(C)=C(C(=O)OC1CCCCC1)C2c1ccc(OC)c(OC)c1 (configuration not stated)	-2.1	0.02
O=C(CN1CC(=O)Oc2ccccc21)OCC(=O)c1ccc(Br)cc1	-1.8	-0.04
Cc1ccc(S(=O)(=O)/N=S(/c2ccccc2)C(C)C)cc1 (configuration not stated)	-1.1	·
O=C(c1ccco1)c1cn(CC(=O)N2CCCc3ccccc32)c2ccccc12	-0.47	2.5
Cc1cc(C)c(S(=O)(=O)Nc2cc(N3CCCS3(=O)=O)ccc2C)c(C)c1	·	-0.24

Single records, from the list above. Order of screens: CDC25B CDK2 inh | TAR Tat displ
Shown for Cc1cc(C)c(S(=O)(=O)Nc2cc(N3CCCS3(=O)=O)ccc2C)c(C)c1 : · | -0.24
Shown for O=C(CN1CC(=O)Oc2ccccc21)OCC(=O)c1ccc(Br)cc1 : -1.8 | -0.04
Shown for COC(=O)C1C(=O)C2=C(CC1C)NC(C)=C(C(=O)OC1CCCCC1)C2c1ccc(OC)c(OC)c1 (configuration not stated) : -2.1 | 0.02

Screening results as filed in PubChem BioAssay.

Compounds as they come. Share with any hit: about 0.94%.
